Source: PubChem BioAssay
StopGo reporter – lowers the luciferase signal of an FMDV 2A StopGo reporter. actives 1.2% (n = 410,000). Potency, µM (top dose mostly 57.9 µM), without a hit: top-dose signal change, negative = less light. human cells with a luciferase reporter of 2A StopGo recoding; control for the full effect not named in the record; active = well fitted falling curve with a large enough effect; inconclusive = small, poorly fitted or top-dose-only effect; inactive = no such curve, though single readings can be large or run the other way; tested in HEK293T cells; further: on the % scale 0 is the no-effect control and ±100 the full control effect; nearly all actives have a fitted effect of over 45% in size; luciferase light after 4 h
Marburg entry inh – blocks Marburg virus binding to or entry into cells; Marburg virus pseudotyped entry inhibition, cell reporter; control for the full effect not named in the record; about a third of the inactives were read at about 46 µM; Potency, µM (doses to about 37.8 µM), for the others: at the top dose activity change, negative = inhibition, usual class: inhibitors; actives 1.8% (n = 300,000); active = well fitted inhibition curve with a large enough effect; inconclusive = small, poorly fitted or top-dose-only effect, or effect the other way; inactive = flat fitted curve, though single readings scatter; tested in HEK293 cells; about a fifth of its hits are not listed in these tables; further: on the % scale 0 is the no-effect control and ±100 the full control effect; luciferase read-out
Cruzain inh noDet – blocks cruzain activity in detergent-free assay; Potency, µM, for inactives: max response, negative = inhibition, most hits filed as inhibitors; actives 2.3% (n = 200,000); AID 1476; P25779; purified cruzain, Z-FR-AMC fluorescence, no detergent;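 further: plate controls were enzyme without inhibitor for no effect and buffer without enzyme for full effect; nearly all actives have a fitted effect of over 40% in size; top concentration of the series not given in the record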
Target sequence (P25779 123-467 limits assumed): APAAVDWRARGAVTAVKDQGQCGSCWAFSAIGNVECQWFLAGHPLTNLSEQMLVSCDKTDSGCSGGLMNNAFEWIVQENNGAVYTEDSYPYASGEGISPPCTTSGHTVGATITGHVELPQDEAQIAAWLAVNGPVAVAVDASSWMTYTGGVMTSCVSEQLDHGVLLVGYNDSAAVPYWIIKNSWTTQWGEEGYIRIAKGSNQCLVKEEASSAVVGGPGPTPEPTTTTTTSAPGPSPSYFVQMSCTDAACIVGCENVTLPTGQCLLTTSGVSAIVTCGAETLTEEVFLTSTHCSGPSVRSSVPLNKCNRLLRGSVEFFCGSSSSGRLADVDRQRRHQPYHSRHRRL
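Detergent-free condition (0.00005% Triton X-100) in acetate buffer pH 5.5 with DTT. 1.5 nM enzyme and compound were pre-mixed 15 min, then 2 uM Z-FR-AMC substrate added; reaction progress from fluorescence change between first and third reads (60 s).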
SARS PLpro yeast – inhibitors of SARS-CoV papain-like protease in yeast; S. cerevisiae expressing SARS-CoV PLpro, growth rescue; control for the full effect not named in the record; Potency, µM (highest dose often 32.9 µM), inactives show at the highest dose activity, positive = growth rescue; actives 0.19% (n = 330,000); AID 485353; active means well fitted rising curve with a large enough effect; inconclusive means small, poorly fitted or top-dose-only effect; inactive means no such curve, though single readings can be large or run the other way; further: 0% is about no effect; nearly all actives have a fitted effect of over 55% in size; growth read by luminescence after 48 h
LASV entry inh – inhibitors of Lassa virus binding or cell entry; Lassa virus pseudotype entry inhibition, cell reporter; control for the full effect not named in the record; Potency, µM (doses to about 37.9 µM), without a hit: top-dose activity change, negative = inhibition, most hits filed as inhibitors; actives 1.2% (n = 300,000); AID 540256; active means well fitted inhibition curve with a large enough effect; inconclusive means small, poorly fitted or top-dose-only effect, or effect the other way; inactive means flat fitted curve, though single readings scatter; tested in HEK293 cells; further: on the % scale 0 is the no-effect control and ±100 the full control effect; nearly all actives have a fitted effect of over 50% in size; luciferase read-out
NS1 inh – blocks influenza NS1 protein function | S. cerevisiae slowed by influenza A NS1, growth recovery by OD600 | Potency, µM (series often up to 46.1 µM), without a hit: at the highest dose activity, positive = more growth | actives 0.4% (n = 270,000) | AID 2326; active means well fitted rising curve with a large enough effect; inconclusive means small, poorly fitted or top-dose-only effect; inactive means no such curve, though single readings can be large or run the other way; further: nearly all actives have a fitted effect of over 50% in size
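OD600 was taken as the measure of yeast growth restored by compound in an NS1-expressing S. cerevisiae strain. Cells had been washed out of glucose medium and diluted 1:100 into galactose -URA medium, pH 6.0.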
Cruzain Triton – cruzain (T. cruzi) inhibition with detergent; Potency, µM, for inactives: max response, negative = inhibition, hits mostly inhibitors; P25779; actives 0.43% (n = 200,000); AID 1478; purified cruzain, Z-FR-AMC fluorescence, 0.01% Triton;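 further: plate controls were neutral wells for no effect and buffer without enzyme for full effect; nearly all actives have a fitted effect of over 40% in size; top concentration of the series not given in the record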
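Cruzain (1.5 nM) preincubated 15 min at RT with compound in 100 mM sodium acetate pH 5.5, 5 mM DTT, 0.01% Triton X-100. Reaction started with 2 uM Z-FR-AMC; AMC fluorescence (ex 360/em 450 nm) change over 60 s gave rate.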
RE007 growth inh – less growth of the S. pombe RE007 Vpr strain; Potency, µM (titrated, usually from 92.2 µM), for the others: at the top dose activity change, negative = less growth; actives 0.21% (n = 360,000); S. pombe RE007 Vpr strain, BacTiter-Glo ATP luminescence, 24 h; control for the full effect not named in the record; AID 651644; active = well fitted falling curve with a large enough effect; inconclusive = small, poorly fitted or top-dose-only effect; inactive = no such curve, though single readings can be large or run the other way;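 further: on the % scale 0 is the no-effect control and ±100 the full control effect; nearly all actives have a fitted effect of over 50% in size; the assay follows cell death caused by Vpr and the record does not say whether a fall means rescue or toxicity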
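Fission yeast RE007 carrying one integrated HIV-1 vpr copy, seeded at OD 0.01 in PMG+AL medium with 23 nL pinned compound. Grown 24 h at 30 degrees; viability read by BacTiter-Glo luminescence after 5 min.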
The depositor's hits bear a star; ? = inconclusive; nt = not tested or not shown; & = joins results of further samples; [ ] = remark or other dose. Unless noted, the call rests on the fitted dose curve; in most records, active means well fitted curve in the direction sought with a large enough effect; inconclusive means small, poorly fitted or top-dose-only effect, or another doubt; inactive means no such curve, though single readings can be large; an effect the other way counts as inactive or inconclusive. Potency means the concentration at half of the fitted maximal effect.

SMILES	StopGo reporter	Marburg entry inh	Cruzain inh noDet	SARS PLpro yeast	LASV entry inh	NS1 inh	Cruzain Triton	RE007 growth inh
Cc1ccc(C)c(S(=O)(=O)c2cnc(SCC(=O)Nc3ccc(F)cc3F)[nH]c2=O)c1	-22%	?	?	nt	nt	nt	-12%	nt
Cc1ccc(Nc2nc(=O)c3cccnc3s2)c(Br)c1	19%	?	nt	-6%	?	-36%	nt	14%
O=C(c1cnn2c(C(F)F)cc(-c3ccccc3)nc12)N1CCCCC1c1cccnc1 (stereo not drawn)	-18%	8%[46.1 µM]	nt	0%	-3%	-4%	nt	4%
CC1(C)C(=O)N(CC(=O)Nc2ccc(Cl)cc2)c2ccccc21	-18%	nt	-3%	nt	-14%[46.1 µM]	nt	-5.9%	nt
COc1cc2ccccc2cc1C(=O)Nc1ccc2oc(=O)ccc2c1	19%	?	nt	-2%	-8%	5%	nt	0%
O=C(Cn1nnc(-c2ccccc2NC(=O)c2cccs2)n1)Nc1ccccc1	-25%	-29%	11%	-5%	?	-3%	-2.6%	-2%
COc1cc(NC(=O)C2C3CCC(O3)C2C(=O)O)cc(OC)c1 (stereo not drawn)	-8%	?	nt	2%	-25%[46.1 µM]	21%	nt	-13%
c1csc(-c2nnc(N3CCCCCC3)c3ccccc23)c1	30%[activator]	nt	-7%	-11%	-11%	-18%	-4.6%	-10%
CCOc1nc(-c2ccc(C)cc2)ccc1-c1noc(-c2ccccc2F)n1	-1%	?	-4%	nt	-7%[46.1 µM]	nt	-1.7%	nt
CCCCC(=O)Nc1cccn2ncnc12	3%	12%[46.1 µM]	nt	-6%	11%	nt	nt	-23%
Cc1cnc(C(=O)OCc2c(C)cc(C(C)(C)C)cc2C)cn1	0%	-11%[46.1 µM]	nt	-22%	-6%[46.1 µM]	-36%	nt	-6%
COc1ccc(OC)c(NS(=O)(=O)c2cccc3cccnc23)c1	26%	?	nt	1%	2%[46.1 µM]	-1%	nt	-8%
COC(=O)[C@@H]1C[C@@H]2CC[C@@H](O)C[C@@H]2N1Cc1ccc(N2CCN(C)CC2)cc1	-14%	nt	-5%	-4%	nt	3%	1.8%	0%
Cc1ccc(C(=O)OCC(=O)Nc2ccc3c(c2)OCO3)cc1S(=O)(=O)N1CCOCC1	-7%	-27%[46.1 µM]	-20%	-7%	?	5%	-8.0%	-10%
c1ccc2c(c1)CCN(CCCNc1nc3ccccc3n3cnnc13)C2	1%	nt	5%	-4%	nt	-13%	-1.3%	-1%
CCN(C(=O)COC(=O)CCn1c(C)csc1=O)c1c(N)n(Cc2ccccc2)c(=O)[nH]c1=O	-15%	-4%	nt	0%	-5%	nt	nt	33%
COc1ccc(OC)c(S(=O)(=O)N2CCN(C)CC2c2ccccc2)c1 (stereo not drawn)	21%	1%	nt	-10%	-1%	nt	nt	-5%
Cc1ccc(OCCC(=O)OCC(=O)NCc2ccccc2)cc1	-6%	10%[46.1 µM]	nt	-2%	-2%	nt	nt	-14%
CC(=O)n1nc(-c2cccc(C)c2)nc1SCC(=O)Nc1ccccc1	32%[activator]	-2%	?	-12%	?	-3%	5.4%	4%
COc1ccccc1NC(=O)CCC(=O)O	-18%	1%	-10%	2%	16%	9%	-4.6%	-6%
CC(Oc1cccc(NC(=O)c2cccs2)c1)C(=O)c1ccccc1 (stereo not drawn)	-27%	?	nt	-4%	?	-31%	nt	-5%
COC(=O)CC(NS(=O)(=O)c1cccs1)c1cccc2ccccc12 (stereo not drawn)	-1%	?	-4%	5%	3%	-6%	-2.3%	-8%
COc1ccc(/C=C2\CCCc3c2nc2ccccc2c3C(=O)OCC(=O)c2c(N)n(C)c(=O)n(C)c2=O)cc1	nt	-27%	-14%	16%	-6%	?	-1.4%	nt
O=C(NCCC1=CCCCC1)C1CCC(CNS(=O)(=O)c2ccccc2)CC1 (stereo not drawn)	-12%	13%	1%	3%	?	-1%	1.3%	2%
NC(=O)CSc1nnc(Cc2ccc3c(c2)OCO3)o1	7%	12%[46.1 µM]	nt	0%	-5%[46.1 µM]	-1%	nt	11%
Cc1cccc(OCCCC(=O)Nc2ccc(S(N)(=O)=O)cc2)c1C	-6%	-17%	?	0%	-12%	20%	-4.3%	31%
CN(C(=O)CSc1nnc(-c2cccnc2)n1-c1ccccc1F)C1CCS(=O)(=O)C1 (stereo not drawn)	0%	-2%[46.1 µM]	nt	-2%	nt	2%	nt	-6%
CCC(=O)N1c2ccccc2CC1C(=O)NCc1cccc(OC)c1OC (stereo not drawn)	-4%	nt	13%	nt	-6%[46.1 µM]	nt	0.9%	nt
O=C(CCS(=O)(=O)c1cc(Br)cc2c1N(C(=O)C1CC1)CC2)N1CCN(c2ccccc2)CC1	7%	22%[46.1 µM]	0%	nt	9%[46.1 µM]	nt	-0.4%	nt
Clc1ccccc1-c1nnc(COc2ccccc2)o1	58%[activator]	?	-1%	nt	?	nt	-7.8%	nt
COc1ccc(N(CC(=O)N/N=C/c2ccc(OC)c(OC)c2)S(=O)(=O)c2ccccc2)cc1	-4%	-23%[46.1 µM]	nt	0%	?	-5%	nt	3%
CCOC(=O)c1ccc(-c2c(-c3ccc4c(c3)OCO4)noc2C)cc1F	-11%	nt	nt	-23%	nt	-24%	nt	-16%
CC1CC(=O)c2cnc(NCc3ccco3)nc2C1 (stereo not drawn)	10%	-5%	1%	5%	?	-5%	1.9%	1%
CCC1(C)Cc2ccccc2-c2nc(NN)[nH]c(=O)c21 (stereo not drawn)	0%	nt	nt	-3%	nt	?	nt	0%
CC1(C)CC(=O)N(Cc2ccccc2)C(=O)C1	-12%	-7%	2%	14%	?	2%	0.8%	2%
O=C(Cn1[nH]c(=O)c2ccccc2c1=O)Nc1ccc(-c2nnc3n2CCCCC3)cc1	-24%	15%	-2%	6%	6%	0%	0.0%	-2%
O=C(O)/C(=C\c1cccc(F)c1)c1ccc(S(=O)(=O)N2CCCC2)s1	-12%	?	nt	1%	-2%	nt	nt	7%
CCOC(=O)c1ccc(NC(=O)Cn2c(=O)n(-c3ccc(C)cc3)c(=O)c3c2cnn3C)cc1	-17%	-27%[46.1 µM]	6%	nt	0%[46.1 µM]	nt	-1.2%	nt
CN(C)CCOc1cccc(Cl)c1	-16%	4%	2%	0%	14%	-9%	-2.7%	-1%
COc1ccc(NC(=O)c2cccnc2SC)cc1S(=O)(=O)N1CCCCC1	-4%	-17%	2%	4%	-15%	-15%	-2.2%	6%
O=C(COC(=O)Cc1ccsc1)Nc1ccc(Cl)cc1F	5%	13%	nt	-25%	?	nt	nt	-11%
COc1ccc(-n2c(COc3cccc(C)c3)nnc2SCC(=O)NCc2ccco2)cc1	22%	23%&23%	?	-15%	?	-3%	-1.3%	8%
CCNC(=O)c1c(NC(=O)Cc2coc3cc(C)ccc23)sc2c1CCCC2	21%	-17%[46.1 µM]	-13%	nt	nt	nt	-8.8%	nt
COc1ccc(COC(=O)Nc2cn(C)nc2C(F)(F)F)cc1	7%	-26%[46.1 µM]	nt	-1%	7%[46.1 µM]	5%	nt	-10%
CS(=O)(=O)N1CCC(C(=O)N2CCc3ccccc3C2)CC1	8%	-9%	-2%	1%	0%	-9%	6.3%	-4%
CCOC(=O)c1ccc(NC(=O)c2ccccc2N(C)S(=O)(=O)c2ccccc2)cc1	?	?	7%	-17%	?	-15%	-5.0%	0%
O=C1CN(C(=O)COC(=O)c2ccccc2Br)c2ccccc2N1	5%	3%	nt	0%	-3%	nt	nt	-7%
COc1ccccc1C(=O)NC(=O)COC(=O)CN1C(=O)NC(C)(C)C1=O	-8%	-2%[46.1 µM]	nt	-2%	23%	nt	nt	-11%
CCc1nc2ccccc2n1CCCCOc1ccccc1C	?	-5%[46.1 µM]	12%	nt	-7%[46.1 µM]	nt	-7.2%	nt
CCc1nnc(NC(=O)c2cc([N+](=O)[O-])ccc2N2CCOCC2)s1	-11%	16%[46.1 µM]	nt	-3%	21%	nt	nt	5%
CC1CC1C(=O)OCC(=O)Nc1ccccc1Oc1ccccc1 (stereo not drawn)	-18%	0%	nt	2%	?	nt	nt	-6%
Cc1cc(C)cc(N(C(=O)c2ccccn2)C(C(=O)NC2CCCCC2)c2cccs2)c1 (stereo not drawn)	nt	?	12%	0%	-25%	-3%	2.7%	-4%
CCOc1ccc(N2C(=O)CC(N)C2=O)cc1 (stereo not drawn)	-15%	-4%	8%	-119%	-1%	-51%	-0.8%	7.1µM*
COC(=O)[C@@H](NC(=O)NC(C)CCc1ccccc1)C(C)C (stereo partly drawn)	-9%	1%	12%	2%	8%	-11%	4.7%	-14%
CCN(CC(=O)N1CCN(C)CC1)S(=O)(=O)c1ccc(Cl)cc1	-19%	-13%	6%	8%	5%	-4%	-3.8%	-14%
CC(C)(C)c1ccc(NC(=O)CSc2nnc(-c3n[nH]c4ccccc34)o2)cc1	?	?	13%	-48%	1%	9%	-8.8%	-1%
CC(=O)NNC(=S)NC(=O)C(c1ccccc1)c1ccccc1	?	nt	nt	1%	nt	-16%	nt	7%
Cc1ccc(N2NC(=O)/C(=C/c3ccc(-c4ccc(Cl)c(C(=O)O)c4)o3)C2=O)cc1	4%	?	nt	0%	-23%[46.1 µM]	nt	nt	4%
Cc1ccc(-c2cc(C(F)F)n3ncc(C(=O)N4CCCCC4c4cccnc4)c3n2)cc1 (stereo not drawn)	-23%	?	nt	-1%	?	-3%	nt	11%
C[C@@H]1NC(=O)[C@H](CC(N)=O)NC(=O)c2cc([N+](=O)[O-])cc(I)c2OCC[C@@H](C(=O)NC(CC(=O)O)C(N)=O)NC1=O (stereo partly drawn)	-14%	-12%	?	-2%	9%	-11%	-1.4%	3%
Cc1cc2[nH]c(=O)c(=O)[nH]c2cc1S(=O)(=O)NCc1ccc(Cl)cc1	-2%	nt	nt	3%	nt	-3%	nt	-1%
